RanGTP-Imp inh: inhibitors of RanGTP-importin-beta interaction, primary screen, biochemical, FRET, CFP-Ran, YFP-importin-beta, homogeneous; AID 2216; inhibition, % (test concentration not listed); cell-free CFP-Ran/YFP-importin-beta FRET ratio; hit rate 1.1% among 300,000;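 active = most replicates above 15%; inconclusive = exactly half above 15%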;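 also: 0% = DMSO wells and 100% = Ran loaded with GDP instead of GTP; wells of about 40 µL received 100 nL stock; the first replicate is given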
AF4-AF9 inh: blocks AF4 peptide binding to human AF9. inhibition, % at 10 µM. hit rate 0.47% among 350,000. P42568. AlphaScreen, biotin-AF4 peptide binding to FLAG-AF9. AID 651704;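 active = every replicate reaching a set inhibition limit, whatever the replicate mean, cut at about 25% in these data; inconclusive = mean inhibition reaches that limit but some replicates miss it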;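 also: 0% = plate neutral control median and 100% = total signal loss; the record names both 10 and 1 µM as test concentration; the first replicate is given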
Target sequence (P42568 whole entry, looked up): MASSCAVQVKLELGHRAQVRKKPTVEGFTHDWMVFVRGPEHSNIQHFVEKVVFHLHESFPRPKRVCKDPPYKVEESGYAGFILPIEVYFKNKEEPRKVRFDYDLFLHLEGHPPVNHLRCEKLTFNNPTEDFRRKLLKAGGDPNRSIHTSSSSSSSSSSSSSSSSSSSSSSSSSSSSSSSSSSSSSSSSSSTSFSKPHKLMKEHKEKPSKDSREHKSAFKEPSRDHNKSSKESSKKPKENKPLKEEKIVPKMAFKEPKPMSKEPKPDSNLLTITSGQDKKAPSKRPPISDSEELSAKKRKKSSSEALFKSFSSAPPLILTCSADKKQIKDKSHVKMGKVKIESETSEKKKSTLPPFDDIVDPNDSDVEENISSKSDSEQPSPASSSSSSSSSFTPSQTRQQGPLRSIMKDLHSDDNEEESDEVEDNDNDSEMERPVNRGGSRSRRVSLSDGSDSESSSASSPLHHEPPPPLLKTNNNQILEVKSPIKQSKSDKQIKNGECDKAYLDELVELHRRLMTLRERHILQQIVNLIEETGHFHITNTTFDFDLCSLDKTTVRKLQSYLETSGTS
E coli growth: blocks Escherichia coli growth | OD600 absorbance (concentration not given with the values) | AID 1053175 | hit rate 0.21% among 330,000 | OD600, 23 h; stronger effect = lower value;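 active = OD600 absorbance below the run mean of sample wells minus 3.6 SD, in any replicate, cut at about 0.56 in these data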;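 also: stock transfer was 300 nL into about 60 µL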
FGF22 binding: FGF22 (human) thermal shift binding | Q9HCT0 | AID 651658 | recombinant FGF22 thermal shift, SYPRO orange fluorescence; percent of sucrose octasulfate shift, DMSO zero | hit rate 1.5% among 340,000 | calls only at 9.99 µM;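 active = melting point raised past a set limit in the mean and every replicate; inconclusive = no clear call; three in four hits are not shown here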
Target sequence (Q9HCT0 whole entry, looked up): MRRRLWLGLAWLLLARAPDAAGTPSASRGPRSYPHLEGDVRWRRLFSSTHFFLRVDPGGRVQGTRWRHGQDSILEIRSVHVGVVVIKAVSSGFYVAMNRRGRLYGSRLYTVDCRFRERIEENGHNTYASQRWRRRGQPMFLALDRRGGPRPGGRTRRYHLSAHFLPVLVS
HNF4A DNA FP: change in binding of human HNF4 alpha to DNA | activity change, % at 10 µM | HNF4a-FITC DNA binding, fluorescence polarization, 1 h | hit rate 0.3% among 360,000 | AID 1224865; in the data active = activity change above about 30%, passing the limit was not always enough;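 also: controls were the assay level and a saturating level of protein; the project sought stronger binding though the title names inhibitors; some compounds called inactive have numbers as strong as hits; positive values seem to mean higher polarization but the record does not say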
UCH37 inh: inhibitors of human deubiquitinating enzyme UCH37 | Q9Y5K5 | purified proteasome/UCH37, Ub-AMC cleavage fluorescence | inhibition, % (concentration not given with the values) | hit rate 0.33% among 330,000 | AID 588478;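 active = mean of two replicates above 20%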;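 also: 0% = compound-free wells with enzyme and 100% = wells lacking proteasome; stock transfer was 100 nL into about 20 µL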
Target sequence (Q9Y5K5 whole entry, looked up): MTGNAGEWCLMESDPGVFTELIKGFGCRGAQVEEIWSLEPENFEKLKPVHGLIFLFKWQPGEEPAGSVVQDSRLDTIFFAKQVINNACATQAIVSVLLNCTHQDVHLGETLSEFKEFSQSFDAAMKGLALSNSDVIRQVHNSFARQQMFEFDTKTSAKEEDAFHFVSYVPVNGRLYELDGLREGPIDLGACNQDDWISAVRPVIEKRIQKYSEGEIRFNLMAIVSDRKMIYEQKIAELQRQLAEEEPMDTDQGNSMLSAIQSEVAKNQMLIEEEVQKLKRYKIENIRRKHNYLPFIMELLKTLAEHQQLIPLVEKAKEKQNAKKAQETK
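Material: human UCH37 enzyme supplied as purified proteasome complex / Amount: 0.15 nM proteasome as dispensed / Buffer or medium: pH 7.4 Tris-HCl (50 mM) with ovalbumin, ATP-MgCl2, DTT / Times: preincubation 30 min, reaction 25 min, room temperature / Technique: AMC fluorescence from Ub-AMC cleavage, excitation 355 nm, emission 460 nm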
Vif A3G: HIV-1 Vif–A3G interaction blockers – biochemical, TR-FRET, GST-Vif 1-94, biotin-A3G peptide, dose response retest, primary screen (AID 1117319) | TR-FRET GST-Vif / biotin-A3G peptide binding; higher % means a stronger effect; test concentration not given here; strong numbers were not always called active | inhibition, %; hits with a dose series show IC50 in µM | hit rate 0.57% among 260,000;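 active = above the screen mean plus three standard deviations and confirmed in dose response; inconclusive = results disagree or hit not tested in dose response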;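 also: Vif residues 1-94 fused to GST binding biotinylated APOBEC3G peptide 110-148; 0% = full assay without inhibitor and 100% = GST in place of GST-Vif; retest series ran down from 100 µM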
The depositor's hits bear a star; i = inactive; ? = inconclusive; / = no result given; & = joins results of further samples. An excerpt; rates above refer to the full screens.

SMILES | RanGTP-Imp inh | AF4-AF9 inh | E coli growth | FGF22 binding | HNF4A DNA FP | UCH37 inh | Vif A3G
COc1ccc(NC(=O)CC2C(=O)N(C)C(=S)N2CCc2ccccc2)cc1 (stereo unspecified) | -0.9 | / | 0.68 | / | 1.8 | 1.7 | -8%
CCc1ccc(OC(=O)Nc2ccccc2)cc1 | -3.3 | 0.3 | 0.68 | / | 0.2 | 2.5 | 4%
COc1ccc(CN(Cc2cc3ccc(C)cc3[nH]c2=O)Cc2nnnn2C2CCCC2)cc1 | -0.2 | / | 0.71 | / | 0.5 | 2.7 | 2%
O=[N+]([O-])c1ccc2c(c1)C(O)n1nc(-c3ccc(Cl)cc3Cl)nc1S2 (stereo unspecified) | -3.6 | / | 0.71 | / | 0.9 | 4.3 | 9%
NS(=O)(=O)c1ccc(NC(=O)CN2C(=O)c3ccccc3C2=O)cc1 | -0.2 | -0.7 | 0.71 | i | -0.8 | 6.3 | -4%
CNc1ccc(Br)cc1C(O)c1ccccc1 (stereo unspecified) | 3.6 | -0.9 | 0.7 | i | 1.7 | 5.2 | 1%
N#Cc1cccc(NC(=O)Cc2ccsc2)c1 | 1.1 | -1.6 | 0.65 | i | 1.5 | -0.1 | 5%
COc1ccc(CCn2c(N)cc(=O)[nH]c2=O)cc1OC | / | -1.9 | 0.72 | i | -0.8 | 4.6 | -7%
CCCN(CC(=O)Nc1ccccc1C)C(=O)c1ccc(COc2ccccc2)cc1 | ? | -0.8 | 0.72 | i | -3.4 | 1.1 | -1%
CN(C)S(=O)(=O)c1cccc(NC(=S)N2CCCCC2CO)c1 (stereo unspecified) | -2.5 | -2.2 | 0.73 | i | -5.5 | 4.5 | 13%
Cc1ccccc1NC(=O)c1c(C)nc(SCC(=O)OCc2ccccc2)c(C#N)c1-c1ccc(F)cc1 | 2.1 | -2.1 | 0.69 | i | 4.9 | -0.4 | /
CCCCn1c(SCC(=O)N2CCC(C)CC2)nc2cc(S(N)(=O)=O)ccc21 | 1.9 | -20 | 0.62 | i | -0.3 | 1.9 | 4%
COc1ccc([C@H]2C[C@H](O)[C@@H](n3cc(-c4ccc(F)cc4)nn3)CN2C(=O)c2cccs2)cc1 | / | -1.5 | / | i | -5.1 | / | /
CCN(CC(=O)Nc1c(F)cccc1F)C(=O)c1ccc(N2CCCC2=O)cc1 | -3.8 | 0.0 | 0.68 | i | -2.1 | 2.8 | -14%
COc1ccccc1CN(C)C(=O)c1ccc(COc2ccccc2)cc1 | -2.0 | 6.5 | / | i | 0.3 | / | 7%
O=[N+]([O-])c1cccc(CSc2nnc3ccccn23)c1 | -2.1 | -4.4 | 0.69 | i | 1.5 | 4.0 | -14%
COCCn1c(N)c(N(Cc2ccccc2)C(=O)c2cc3ccccc3o2)c(=O)[nH]c1=O | -2.1 | 0.2 | 0.69 | i | 0.6 | -1.4 | /
CCOC(=O)C1CCN(C2=NC(=O)/C(=C/c3ccc(O)cc3)S2)CC1 | -3.0 | 0.2 | 0.68 | i | 3.0 | 7.2 | -7%
CC(=O)N1CCCC(C)(C(=O)Nc2cccc(OC(C)C)c2)C1 (stereo unspecified) | / | -1.1 | / | i | -1.1 | / | /
Cc1cnccc1CN(C)C(=O)C1CCC(=O)N(Cc2ccccc2F)C1 (stereo unspecified) | -1.9 | -10 | 0.73 | i | -0.9 | 1.0 | -1%
CCOC(=O)/C(=C/c1ccc(OC(=O)c2ccccc2)cc1)C(C)=O | 0.5 | / | 0.7 | / | 1.5 | 4.1 | 13%
COc1ccc(C2CC=C(C(C)=O)CN2S(=O)(=O)c2ccccc2)cc1 (stereo unspecified) | / | -0.7 | / | i | -0.3 | / | /
CCC(=O)NC(NC(=S)Nc1c(C)n(C)n(-c2ccccc2)c1=O)C(Cl)(Cl)Cl (stereo unspecified) | -0.9 | -8.5 | 0.64 | i | -2.0 | 2.6 | 11%
Cc1nc(SCC(=O)NC(=O)NCc2ccccc2)nc(C)c1C | 1.5 | / | 0.66 | / | 3.0 | 15 | 3%
O=C(CNCCCO)Nc1cc(C(F)(F)F)cc(NC(=O)CNCCCO)c1Cl | -1.8 | -5.3 | 0.69 | i | -4.7 | 5.1 | 19%
Cc1cccc(N(CC(=O)NC(C)(C)C)C(=O)CS(=O)CC(=O)Nc2ccc(F)cc2)c1 (stereo unspecified) | ? | -2.6 | 0.68 | i | -1.1 | 3.5 | -5%
O=C(O)c1ccc(CNCc2ccccc2F)cc1 | 2.6 | -1.1 | 0.68 | / | -2.4 | -0.2 | 9%
COCCNC(=O)Cn1nc(-c2ccccc2F)ccc1=O | -2.2 | -3.3 | 0.67 | i | 0.3 | 2.4 | /
COc1ccnc(Oc2ccc(F)cc2)c1C(=O)N/C=N/OCc1ccccc1 | 1.4 | -1.9 | 0.66 | i | 0.4 | 5.6 | 7%
COc1ccc(CCNC(=O)CNC(=O)N2CC(=O)Nc3ccccc32)cc1OC | / | 0.8 | / | i | -2.4 | / | 0%
COc1ccc(S(=O)(=O)N2CCN(C(=O)c3ccc(=O)[nH]n3)CC2)cc1OC | / | 0.2 | 0.69 | i | -2.2 | 0.6 | 0%
COC(=O)c1ccc(C23CC4(C2)[C@H](CN(Cc2cccnc2)[C@@H]4c2ccccc2)C3c2ccc(C(F)(F)F)cc2)cc1 (stereo partly specified) | -4.5 | 2.2 | / | i | / | 2.7 | /
Cc1cc(C)c(Cn2c(=O)[nH][nH]c2=O)cc1Cn1c(=O)[nH][nH]c1=O | / | 6.4 | / | / | 3.2 | / | 2%
COc1ccc(/C=C2/SC(=O)N(CC(O)Cn3c4ccccc4c4ccccc43)C2=O)cc1 (stereo unspecified) | -1.9 | / | 0.73 | / | 4.8 | 3.9 | 30%
C=CCN1C(=S)CC(c2ccccc2)=Nc2ccccc21 | 4.1 | 7.9 | 0.67 | i | -0.9 | 0.3 | /
Cc1onc(-c2ccccc2)c1-c1csc(COc2ccccc2)n1 | -7.2 | -2.5 | 0.68 | i | 3.7 | 7.4 | -1%
COc1ccc(S(=O)(=O)N2CCC(C(=O)NCc3ccccn3)CC2)cc1C | 0.8 | / | 0.67 | / | -1.6 | 3.1 | 5%
CC(C)(C)OC(=O)N/N=C\c1cccnc1 | 4.4 | -1.0 | / | i | 2.2 | / | 8%
CCOC(=O)c1cnc2c(C#N)c(C)nn2c1-c1ccccc1 | 2.5 | -5.1 | 0.72 | i | 4.7 | -1.8 | -3%
O=C(NCc1ccco1)Nc1ccc([N+](=O)[O-])cc1 | 0.7 | 5.6 | 0.61 | i | 5.2 | 11 | 0%&-8%
CCOc1ccccc1NC(=O)CCCCCN1C(=O)[C@@H]2Cc3ccccc3CN2C1=O | 0.2 | -1.9 | 0.61 | i | -0.5 | 1.5 | /
CN(c1ccccc1)S(=O)(=O)c1cccc(NC(=O)C2=NN(c3ccccc3)C(=O)CC2)c1 | / | 9.3 | 0.71 | i | 4.8 | -21 | /
CC(C)N(Cc1ccccc1)C(=O)COC(=O)/C=C/c1cnc2ccccc2n1 | -5.6 | 4.9 | 0.65 | i | 2.6 | 3.1 | -3%
O=C(Cc1ccc(F)cc1)N1CCN(c2ccc(F)cc2)CC1 | -3.7 | 0.8 | 0.65 | i | -3.6 | 5.0 | /
O=C(Cn1cnc2c(OCc3ccccc3)ncnc21)N1CCN(c2ccccn2)CC1 | / | -3.8 | 0.69 | i | -0.7 | -1.8 | 3%
O=C(Nc1ccc(Cl)cc1)C1CCCN(S(=O)(=O)c2cnc[nH]2)C1 (stereo unspecified) | -0.7 | -2.2 | 0.67 | i | 3.2 | 4.2 | -9%
CCCCN1C(=O)/C(=C2/Sc3ccc(OC)cc3N2CC)SC1=S | 23* | / | 0.71 | / | 6.0 | 5.5 | 3%
COc1ccc(N2CCN(C(=O)C3CCN(S(=O)(=O)c4ccccc4)CC3)CC2)cc1 | -0.3 | 1.9 | 0.63 | i | 3.9 | 1.1 | 7%
Cn1c(=O)[nH]c(=O)c2c1nc(CN1CCOCC1)n2Cc1ccccc1 | 1.1 | 6.1 | 0.64 | i | -1.8 | 0.4 | 9%
COc1cc(NC(=O)c2cccc(C)c2)c(OC)cc1NC(=O)CN1CCOCC1 | 9.7 | 1.6 | 0.7 | i | -0.2 | 4.3 | 2%
N#C/C(=C\c1cccnc1)c1nc2c(s1)CCCC2 | 7.6 | 6.4 | 0.64 | i | -22 | -24 | 3%
OC(COc1ccc(Cl)cc1Cl)Cn1ccnc1 (stereo unspecified) | -0.3 | 1.0 | 0.63 | i | -2.1 | 1.3 | -2%
CCCn1c(NCc2ccccn2)nc2ccccc21 | 0.5 | / | 0.68 | / | 2.3 | -2.5 | 7%
CCOc1ccc(CNC(=O)C2Cc3cc(S(=O)(=O)N4CCCC4)ccc3N2C(C)=O)cc1 (stereo unspecified) | 1.1 | -0.3 | 0.62 | i | -0.6 | -1.3 | /
O=C(CCN1C(=O)/C(=C/c2ccccc2F)SC1=S)Nc1ccccn1 | -0.9 | -1.1 | 0.75 | i | 1.4 | 1.9 | /
COc1c(F)c(F)c(C(=O)Nc2cccc(Cl)c2N2CCOCC2)c(F)c1F | -4.7 | / | 0.72 | / | -0.6 | -5.0 | 10%
CN1CCN(CC(O)COc2ccccc2)CC1 (stereo unspecified) | 1.4 | 0.0 | / | i | 1.3 | / | -7%
Cc1ccc(-c2nn(CC(=O)NN3CCOCC3)c(=O)c3ccccc23)cc1 | 2.3 | -0.1 | 0.68 | i | -0.7 | 5.7 | /
COCCNC(=O)c1onc(CCl)c1C(=O)OC | 2.7 | -2.9 | 0.65 | i | 0.3 | 2.1 | ?
O=C(COc1ccccc1)NN1C(=O)CSC1=S | 7.3 | -2.4 | 0.67 | i | -1.1 | -0.4 | /

An excerpt from above in order of their number in HNF4A DNA FP, smallest number first:
SMILES | RanGTP-Imp inh | AF4-AF9 inh | E coli growth | FGF22 binding | HNF4A DNA FP | UCH37 inh | Vif A3G
OC(COc1ccc(Cl)cc1Cl)Cn1ccnc1 (stereo unspecified) | -0.3 | 1.0 | 0.63 | i | -2.1 | 1.3 | -2%
O=C(COc1ccccc1)NN1C(=O)CSC1=S | 7.3 | -2.4 | 0.67 | i | -1.1 | -0.4 | /
CCOc1ccc(CNC(=O)C2Cc3cc(S(=O)(=O)N4CCCC4)ccc3N2C(C)=O)cc1 (stereo unspecified) | 1.1 | -0.3 | 0.62 | i | -0.6 | -1.3 | /
CN1CCN(CC(O)COc2ccccc2)CC1 (stereo unspecified) | 1.4 | 0.0 | / | i | 1.3 | / | -7%

Next part
SMILES | RanGTP-Imp inh | AF4-AF9 inh | E coli growth | FGF22 binding | HNF4A DNA FP | UCH37 inh | Vif A3G
Clc1cccc(Cl)c1CSc1nnc(CN2CCOCC2)n1-c1ccccc1 | 0.2 | / | 0.71 | / | 2.2 | -0.3 | 1%
COc1ccc(-c2cc(C(=O)Nc3ccc(F)cc3F)no2)cc1 | 0.0 | -0.3 | 0.71 | i | 7.9 | 2.6 | -7%
C/C(=N\Nc1ccccn1)c1ccc(Br)s1 | 4.6 | 20 | / | / | -5.8 | / | /
O=C(COC(=O)c1ccccc1Br)Nc1cccnc1Cl | / | -3.9 | 0.67 | i | 0.2 | 2.2 | /
CC(=O)c1cnc(Nc2cccc(C)c2)s1 | 2.0 | -0.1 | 0.65 | i | 2.5 | -27 | -7%
COC(=O)C1=C(C(=O)c2ccccc2)C(c2ccc(OC)c(OC)c2)Nc2nnnn21 (stereo unspecified) | -3.5 | / | 0.75 | / | 0.3 | 7.5 | -6%
CN1C(=O)c2ccc(N3CCCC3)cc2C1=O | -64 | / | 0.73 | / | 0.5 | -5.1 | 3%

Compound activity as filed in PubChem.
